From PubChem BioAssay
DUX4 inh = inhibitors of DUX4-driven ZSCAN4 reporter expression, primary screen, 293T cells, Gaussia and Italica luciferase | 293T-iDUX4 ZSCAN4-Gaussia luciferase reporter, 24 h; active compounds read low | activity change, negative = inhibition, % (no concentration beside the values) | hit rate 0.8% among 37,000 | AID 1224904, 2016;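 active means -10% or lower and over 25 points stronger than a control reporter; inconclusive means -10% or lower with a smaller gap; inactive means above -10%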;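 further: 0% = median of neutral control wells and -100% = median of positive control wells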
DUX4 inh difference = recorded beside DUX4 inh, whose call it bears; Gaussia minus Italica difference, %; measured here: selective DUX4 reporter inhibition;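 worked out from the two reporters; negative = selective loss of the DUX4 reporter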
DUX4 inh control = recorded beside DUX4 inh, whose call it bears; activity change, negative = inhibition, %; measured here: Italica tet-on control reporter;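 0 = neutral control and -100 = positive control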
* marks the source's active call; other numbers are inactive results; u = inconclusive; x = no result given. The list is partial (hit frequency here may not be typical).

The line under a structure holds: DUX4 inh | DUX4 inh difference | DUX4 inh control
COc1ccc(S(=O)(=O)Nc2cccc3c2O[C@H](CN(C)CC2CCCCC2)[C@@H](C)CN([C@H](C)CO)C3=O)cc1
  -1.7 | -2.6 | 0.9
CN1C(=O)c2cc(NC(=O)c3ccccc3F)ccc2OC[C@@H]2O[C@H](CC(=O)NCc3ccc4c(c3)OCO4)CC[C@@H]21
  -1.2 | -4.0 | 2.8
C[C@@H]1CN([C@H](C)CO)C(=O)Cc2cc(NS(=O)(=O)c3cccs3)ccc2O[C@H]1CN(C)Cc1ccc(-c2ccccc2)cc1
  -2.1 | 0.0 | -2.1
O=C(O)C[C@@H]1C[C@H]2c3cc(NC(=O)CC4CC4)ccc3O[C@H]2[C@@H](CO)O1
  13.2 | 3.3 | 9.9
CCCNC(=O)C[C@@H]1CC[C@@H]2[C@H](COC[C@H](O)CN2C(=O)c2cc(Cl)cc(Cl)c2)O1
  0.3 | -7.2 | 7.4
Cc1noc(C)c1S(=O)(=O)Nc1ccc2c(c1)C(=O)N([C@@H](C)CO)C[C@@H](C)[C@@H](CN(C)S(=O)(=O)c1ccc(F)cc1)OCCCC[C@@H](C)O2
  0.8 | -0.4 | 1.2
O=C(C[C@H]1C=C[C@H](NC(=O)C2CC2)[C@@H](CO)O1)NCc1ccncc1
  4.1 | 2.3 | 1.8
CN(C)CC(=O)N1[C@@H](C#N)[C@H](c2ccccc2-c2cccc(C(=O)N(C)C)c2)[C@@H]1CO
  14.2 | 13.9 | 0.3
CNC(=O)C[C@@H]1CC[C@H]2[C@@H](COC[C@H](O)CN2Cc2ccc(Cl)c(Cl)c2)O1
  -6.7 | -0.3 | -6.4
Cc1noc(C)c1NC(=O)Nc1ccc2c(c1)C(=O)N([C@H](C)CO)C[C@H](C)[C@H](CN(C)S(=O)(=O)c1ccc(F)cc1)O2
  5.7 | 6.8 | -1.1
O=C1CNC[C@@H]2[C@@H](c3ccc(C4=CCCC4)cc3)[C@H](CO)N12
  5.3 | 2.7 | 2.7
CCCNC(=O)C[C@@H]1CC[C@H]2[C@@H](COC[C@@H](O)CN2C(=O)Nc2ccccc2OC)O1
  -2.0 | 0.4 | -2.5
C[C@@H]1CN([C@@H](C)CO)C(=O)c2cc(NC(=O)Cc3cn(C)c4ccccc34)ccc2O[C@H]1CN(C)Cc1ccc2c(c1)OCO2
  1.2 | -0.3 | 1.5
COCC(=O)N1CC2(CCN(Cc3ccccc3Cl)CC2)c2c([nH]c3cc(OC)ccc23)[C@@H]1CO
  -3.9 | 3.3 | -7.2
CCNC(=O)C[C@@H]1CC[C@@H]2[C@H](COC[C@@H](O)CN2C(=O)c2ccccn2)O1
  4.6 | 1.9 | 2.6
C/C=C/c1ccc([C@@H]2[C@@H](CO)N[C@@H]2CN(C)S(=O)(=O)c2ccccc2)cc1
  0.3 | -0.6 | 0.9
CO[C@@H]1CC[C@@H]2CCOc3c(C#N)cccc3C(=O)N(C)CC3(CCCCC3)CC(=O)N(C)C[C@H]1O2
  -3.6 | -2.7 | -0.9
CNC(=O)C[C@H]1CC[C@@H]2[C@@H](COc3ccc(NC(=O)c4ccccc4OC)cc3C(=O)N2C)O1
  -0.6 | 3.3 | -3.9
N#C[C@H]1[C@H](c2ccccc2-c2cccc(F)c2)[C@@H](CO)N1C(=O)C1CCCCC1
  u | x | x
CS(=O)(=O)N1[C@H](CO)[C@@H](c2ccc(C#CC3CCCC3)cc2)[C@@H]1C#N
  1.6 | 3.4 | -1.8
CO[C@@H]1CN(C)C(=O)c2ccc(NS(=O)(=O)c3ccc(C)cc3)cc2OC[C@H](C)N(Cc2nccs2)C[C@@H]1C
  -3.1 | 0.2 | -3.3
C[C@@H]1CN([C@H](C)CO)C(=O)c2c(c3ccccc3n2C)-c2ccccc2CO[C@H]1CN(C)S(=O)(=O)c1ccc(C(F)(F)F)cc1
  u | x | x
C[C@H](CO)N1C[C@H](C)[C@H](CN(C)Cc2cccnc2)Oc2ncc(C#Cc3ccccn3)cc2C1=O
  -1.4 | 1.8 | -3.1
CCC(=O)N1[C@H](CO)[C@H](c2ccccc2)C12CN(C(=O)c1ccc3c(c1)OCO3)C2
  -0.5 | -4.9 | 4.4
C[C@@H]1CCCCO[C@@H](CN(C)S(=O)(=O)c2cn(C)cn2)[C@H](C)CN([C@@H](C)CO)C(=O)c2cc(NC(=O)CCCN(C)C)ccc2O1
  4.6 | 5.7 | -1.2
COc1ccc2c3c(n(C)c2c1)[C@@H](CO)N(C(=O)CC1CC1)CC31CCN(C(=O)NC(C)C)CC1
  14.3 | 15.7 | -1.4
C[C@@H]1CN([C@@H](C)CO)C(=O)c2c(c3ccccc3n2C)-c2ccccc2CO[C@H]1CN(C)Cc1cccc(C(=O)Nc2ccccc2N)c1
  u | x | x
CCS(=O)(=O)Nc1ccc2c(c1)C(=O)N(C)[C@@H]1CC[C@H](CC(=O)NCCCN3CCOCC3)O[C@@H]1CO2
  3.0 | 5.3 | -2.3
CC(C)CC#Cc1ccc([C@H]2[C@@H](CO)N3C(=O)CN(C(=O)Cc4ccccc4)C[C@@H]23)cc1
  -6.8 | -0.9 | -6.0
Cc1ccc(S(=O)(=O)N2CC[C@H]3[C@H](CO)Nc4ccc(Br)cc4[C@H]32)cc1
  1.7 | 2.3 | -0.6
O=C(C[C@H]1CC[C@@H](NC(=O)C2CC2)[C@@H](CO)O1)Nc1ccccc1
  -5.6 | -5.3 | -0.3
CC(C)N(C[C@@H]1N[C@H](CO)[C@@H]1c1ccccc1)C(=O)CN1CCOCC1
  0.1 | 3.4 | -3.4
CN(C)CC(=O)Nc1ccc2c(c1)[C@@H]1C[C@@H](CC(=O)NCc3ccc4c(c3)OCO4)O[C@H](CO)[C@@H]1O2
  -3.5 | -1.1 | -2.4
COc1ccc(NC(=O)N(C)C[C@H]2Oc3c(NC(=O)c4ccncc4)cccc3C(=O)N([C@@H](C)CO)C[C@H]2C)cc1
  -1.0 | -2.2 | 1.2
COc1cccc(C#Cc2ccc([C@@H]3[C@@H](CO)N4C(=O)CN(C(=O)Cc5ccccc5)C[C@H]34)cc2)c1
  -6.8 | -12.8 | 6.0
N#Cc1cccc(-c2ccc3c(c2)[C@H]2[C@H](CCN2S(=O)(=O)c2cccc(F)c2)[C@@H](CO)N3)c1
  u | x | x
COc1ccc(NC(=O)N2CCCCN3[C@@H](CO)[C@H](c4ccc(-c5ccccc5F)cc4)[C@@H]3C2)cc1
  u | x | x
COc1cccc(S(=O)(=O)Nc2ccc3c(c2)[C@@H]2C[C@@H](CC(=O)NCc4ccccc4F)O[C@H](CO)[C@@H]2O3)c1
  0.9 | -1.0 | 1.9
COc1ccc2c3c(n(C)c2c1)[C@@H](CO)N(Cc1ccccc1)CC31CCN(C(=O)C2CC2)CC1
  u | x | x
CO[C@H]1CC[C@@H]2CCOc3c(C#N)cccc3C(=O)N(C)[C@@H](C)C(=O)N(C)C[C@H]1O2
  2.9 | 3.4 | -0.5
C[C@@H]1CN([C@H](C)CO)C(=O)CCCn2nncc2CO[C@H]1CN(C)S(=O)(=O)c1ccc(Oc2ccccc2)nc1
  1.2 | 10.5 | -9.3
COc1cccc(NC(=O)Nc2ccc3c(c2)C(=O)N(C)C[C@@H](OC)[C@@H](C)CN[C@@H](C)CO3)c1
  -8.5 | -16.1 | 7.6
CN1CCCCN2[C@H](CO)[C@H](c3ccc(C4=CCCC4)cc3)[C@H]2C1
  17.0 | 1.3 | 15.7
CCS(=O)(=O)N1Cc2cc(C(=O)O)nc(-c3cccc(-c4ccc(C#N)cc4)c3)c2[C@H]1CCO
  4.1 | 6.7 | -2.6
N#C[C@@H]1[C@H](c2ccccc2)[C@H](CO)N1S(=O)(=O)Cc1ccccc1
  4.7 | 1.3 | 3.4
CO[C@H](CN(C)Cc1cc(F)ccc1F)[C@H](C)CN(C(=O)Nc1ccc(F)cc1)[C@H](C)CO
  5.0 | 0.2 | 4.8
COc1ccccc1CN1[C@H](CO)[C@@H]2c3ccccc3N(C(=O)C3CCOCC3)C[C@@H]21
  3.3 | 3.9 | -0.6
CCC(=O)N1CC(=O)N2[C@H](CO)[C@@H](c3ccc(C#Cc4cccc(F)c4)cc3)[C@@H]2C1
  -9.5 | -7.0 | -2.5
CCC(=O)Nc1ccc2c(c1)C(=O)N(C)C[C@H](OC)[C@H](C)CN(Cc1nccs1)[C@@H](C)CO2
  5.5 | 4.9 | 0.5
O=C(C1CCC1)N1CC(=O)N2[C@H](C1)[C@@H](c1ccc(Br)cc1)[C@@H]2CO
  3.9 | 3.8 | 0.1
C/C=C/c1cnc2c(c1)C(=O)N([C@H](C)CO)C[C@H](C)[C@@H](CN(C)CC1CCOCC1)O2
  1.1 | -1.5 | 2.6
COC(=O)[C@H]1[C@H](CO)[C@H]2Cn3c(ccc(-c4ccccc4)c3=O)[C@H]2N1CCc1ccccc1
  -4.8 | -3.4 | -1.3
CO[C@@H](CN(C)C(=O)C1CCOCC1)[C@H](C)CN([C@@H](C)CO)S(=O)(=O)c1ccccc1
  -0.3 | 2.5 | -2.8
CCC(=O)N1CC[C@@H]2[C@@H](CO)Nc3ccc(-c4ccc(F)cc4)cc3[C@@H]21
  10.2 | 10.6 | -0.4
CCNC(=O)[C@@H]1[C@@H](CO)[C@@H]2Cn3c(cccc3=O)[C@H]1N2C(=O)c1ccc(F)cc1
  3.3 | 0.2 | 3.1
O=C(Nc1cccc(F)c1)N1CCCCN2[C@H](C1)[C@H](c1ccc(C#Cc3cccnc3)cc1)[C@@H]2CO
  u | x | x
CS(=O)(=O)N1[C@@H]2c3ccc(-c4ccc(F)cc4)c(=O)n3C[C@H]1[C@H](CO)[C@H]2C(=O)NCC1CC1
  3.1 | 0.4 | 2.7
O=C(C[C@H]1C=C[C@H](NC(=O)c2cccnc2)[C@H](CO)O1)NCc1ccncn1
  8.3 | 0.6 | 7.6
C[C@@H]1CN([C@@H](C)CO)C(=O)Cc2cc(NC(=O)C3CCCCC3)ccc2O[C@@H]1CN(C)S(=O)(=O)c1ccc(F)cc1
  -2.2 | -4.5 | 2.3
C[C@H](CO)N1C[C@H](C)[C@H](CN(C)S(=O)(=O)c2ccc(C#N)cc2)Oc2ncc(-c3cccc(C(F)(F)F)c3)cc2C1=O
  1.2 | -2.5 | 3.7

Continued:
The line under a structure holds: DUX4 inh | DUX4 inh difference | DUX4 inh control
C[C@H](CO)N1C[C@H](C)[C@@H](CN(C)Cc2cccc3c2OCCCO3)OCc2ccccc2-c2c(n(C)c3ccccc23)C1=O
  u | x | x
COc1ccc2c3c([nH]c2c1)[C@H](CO)N(Cc1ccccc1)CC31CN(CC2CC2)C1
  u | x | x
CCNC(=O)[C@@H]1[C@@H](CO)[C@@H]2Cn3c(ccc(/C=C/c4ccccc4)c3=O)[C@H]1N2C(=O)C1CCCC1
  -0.3 | 2.2 | -2.5
N#C[C@@H]1[C@H](c2ccc(C3=CCCCC3)cc2)[C@@H](CO)N1C(=O)c1ccccn1
  -3.9 | -0.5 | -3.4
O=C(C1CCCCC1)N1C[C@@H]2[C@H](c3ccccc31)[C@H](CO)N2CC1CCOCC1
  -0.4 | -1.3 | 0.8
CN1C(=O)c2cc(NS(=O)(=O)c3ccc(Cl)cc3)ccc2OC[C@@H]2O[C@H](CC(=O)N3CCc4ccccc4C3)CC[C@@H]21
  u | x | x
COc1ccc(CN2CC3(CCN(C(=O)c4ccccc4)CC3)c3c([nH]c4cc(OC)ccc34)[C@@H]2CO)cc1
  -1.8 | -28.0 | 26.2
O=C(C[C@@H]1C=C[C@@H](NC(=O)c2ccc3c(c2)OCO3)[C@H](CO)O1)NCc1ccc(F)cc1
  3.2 | 4.2 | -1.0
COc1ccccc1-c1ccc2n(c1=O)C[C@@H]1[C@@H](CO)[C@H](C(=O)NC3CCC3)N(C(C)=O)[C@H]21
  -3.5 | -13.9 | 10.4
CN(C)C(=O)[C@@H]1[C@@H](CO)[C@@H]2Cn3c(ccc(-c4ccccc4)c3=O)[C@H]1N2CCc1ccccc1
  -1.7 | -2.2 | 0.5
C[C@H](NC(=O)[C@H]1[C@H](CO)[C@H]2Cn3c(ccc(C4=CCCCC4)c3=O)[C@H]2N1C)c1ccccc1
  2.2 | 4.5 | -2.3
